Screens from PubChem BioAssay.
Insulin prom inh = inhibitors of insulin promoter-driven GFP, primary screen, imaging, TRM-6 cells (human fetal islet line), eGFP reporter, cell count; reporter expression induced with tamoxifen; inhibition, % at 2 µM; 130,000 tested, 0.9% active;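 active means inhibition above the mean plus 3 SD, with well images judged a real hit on visual review, cut at about 60% in these data, passing the limit was not always enough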
PKD1 inh = inhibitors of human PKD1 kinase, biochemical, fluorescence polarization; PKD1 kinase fluorescence polarization assay; inhibition, %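 (about 10 µM by stock and volumes)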; 200,000 tested, 0.056% active; AID 797, 2007;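 active means inhibition of 50% or more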;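 further: controls were vehicle for no effect and a reference inhibitor for full effect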
RGS16-Gao = modulators of RGS16 binding to Galphao, primary screen, biochemical, human proteins, multiplexed bead flow cytometry; Regulator of G-protein signaling 16 (Homo sapiens) + Guanine nucleotide-binding protein …; bead-based flow cytometry RGS16-Galphao binding, fluorescence; actives lie on both sides; binding response (% of control), % at 10 µM; 220,000 tested, 0.38% active; AID 1441, 2008;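 active means below 25% or above 175%, edge rows of some plates excepted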;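 further: Galphao activated by GDP with aluminum fluoride before binding; 100% = wells without compound and 0% = beads without RGS; some results beyond the cut were filed as inactive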
Target sequence (O15492 whole entry, looked up): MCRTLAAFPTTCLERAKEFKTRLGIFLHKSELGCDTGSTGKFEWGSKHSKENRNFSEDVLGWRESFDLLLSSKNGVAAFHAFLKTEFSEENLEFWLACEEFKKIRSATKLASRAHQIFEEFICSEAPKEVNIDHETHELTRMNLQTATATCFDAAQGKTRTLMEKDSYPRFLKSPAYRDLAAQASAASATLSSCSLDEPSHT
Target sequence (P09471 whole entry, looked up): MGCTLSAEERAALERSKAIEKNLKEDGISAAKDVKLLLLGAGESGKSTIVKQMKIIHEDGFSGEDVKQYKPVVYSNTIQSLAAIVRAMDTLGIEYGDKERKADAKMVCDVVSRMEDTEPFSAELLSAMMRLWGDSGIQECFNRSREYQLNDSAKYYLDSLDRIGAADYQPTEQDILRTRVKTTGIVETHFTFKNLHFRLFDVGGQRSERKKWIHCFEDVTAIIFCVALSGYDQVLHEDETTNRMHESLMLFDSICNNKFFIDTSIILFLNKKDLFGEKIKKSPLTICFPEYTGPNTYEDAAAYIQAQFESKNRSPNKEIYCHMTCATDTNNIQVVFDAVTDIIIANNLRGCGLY
HSV augment = enhancers of HSV replication in host cells, fold increase, host cell viability. maximum fold increase. HSV replication augmentation in cells. 220,000 tested, 0.005% active;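 active means peak rise of 1.5-fold or more in the series; tested in PC3 cells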;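 further: first round at 10 µM; read as green reporter fluorescence; hits show the peak of a series up to 25 µM; 1 = signal of infected wells without compound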
GALR2 agonist = GALR2 receptor agonists, primary screen, cell-based | activation, %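 (tested at 5 µM)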 | 140,000 tested, 0.48% active | GALR2-expressing cells, agonist activation read-out | Galanin receptor type 2 (Homo sapiens), O43603;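 active means above mean plus 3 SD of all compounds, about 5% in these data, not always enough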;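 further: 0% = vehicle buffer wells and 100% = reference agonist at full effect; tested in CHO reporter cells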
Target sequence (O43603 whole entry, looked up): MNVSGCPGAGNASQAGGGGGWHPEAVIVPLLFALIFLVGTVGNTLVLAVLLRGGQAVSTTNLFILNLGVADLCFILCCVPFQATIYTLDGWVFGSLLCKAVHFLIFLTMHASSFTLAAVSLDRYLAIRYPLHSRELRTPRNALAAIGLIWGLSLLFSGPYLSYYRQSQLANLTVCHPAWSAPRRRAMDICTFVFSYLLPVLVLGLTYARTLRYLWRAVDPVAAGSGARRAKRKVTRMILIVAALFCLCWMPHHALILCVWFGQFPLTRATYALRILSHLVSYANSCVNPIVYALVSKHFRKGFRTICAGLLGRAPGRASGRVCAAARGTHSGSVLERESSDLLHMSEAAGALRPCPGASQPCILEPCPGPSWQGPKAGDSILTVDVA
Insulin prom inh cell count = second read-out of Insulin prom inh, no call of its own (marks repeat the call); normalized cell count, %; measured here: cell count, toxicity; reference of the scale not given here;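 cells exposed to compound for 48 h; stained nuclei by imaging scaled within each plate; lower means fewer cells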
HSV augment primary fold = also measured in HSV augment; calls as there; fold increase; compound at 10 µM; measured here: primary screen fold increase 10 uM; tested in PC3 cells;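 GFP signal in the first replicate; 1 = infected wells without compound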
* marks the source's active call; other numbers are inactive results; i = inactive; / = not tested or not shown.

nr	SMILES	Insulin prom inh	Insulin prom inh cell count	PKD1 inh	RGS16-Gao	HSV augment	HSV augment primary fold	GALR2 agonist
1	O=C(CCCSc1nc(-c2ccco2)cc(C(F)(F)F)n1)Nc1ccc2c(c1)OCO2	-9.1	162.7	-7.2	105.2	i	0.9	-2.5
2	Cc1cc2oc(=O)cc(CN3CCN(S(=O)(=O)c4cccs4)CC3)c2cc1C	-36.0	93.6	-2.9	110.9	i	0.97	-2.1
3	CCOC(=O)N1CCC(NC(=O)Cn2nc(-c3ccccc3)ccc2=O)CC1	31.2	109.6	-11.6	93.9	i	0.93	-2.5
4	Cc1nn(Cc2ccccc2)c(Cl)c1C(=O)NCCc1ccccc1	/	/	0.4	101.3	i	1.13	0.7
5	CN(Cc1ccccc1)c1oc(COc2ccccc2F)nc1C#N	/	/	-9.0	88.9	i	0.99	-2.0
6	Cc1nccn1CCC1CCCCN1C(=O)CCc1nnc(-c2ccsc2)o1 (stereo unspecified)	/	/	-0.9	655.8	i	0.9	/
7	CN(Cc1cc2ccccc2[nH]c1=O)C(=O)c1cccs1	/	/	-7.3	98.3	i	0.93	/
8	COc1ccc(/C=N/OCC(=O)N(Cc2ccc(OC)cc2)c2ccccc2C(=O)O)cc1	6.7	119.2	0.0	99.4	i	0.9	-0.2
9	COc1ccc(NC(=O)C(CC(C)C)NS(=O)(=O)c2ccc3c(c2)CCN3C(C)=O)cc1OC (stereo unspecified)	-6.8	48.5	-4.7	110.7	i	0.71	-0.9
10	Cc1nn2c(Nc3ccc(F)cc3)c3c(nc2c1-c1ccccc1)CCC3	86.7*	159.4*	-10.0	104.9	i	0.9	0.1
11	CCCOc1ccc(-c2csc3ncn(Cc4ccc(C(=O)O)cc4)c(=O)c23)cc1	/	/	-0.1	106.7	i	0.98	/
12	Nc1ccc(SCC(=O)Nc2cccc([N+](=O)[O-])c2)cc1	/	/	-4.3	97.1	i	1	/
13	Cc1ccc(/C=N/Nc2cc(C)nc(NCc3ccccc3)n2)cc1	/	/	/	99.3	i	0.97	/
14	CCN(CC)S(=O)(=O)c1cc(C(=O)Nc2ccccc2[N+](=O)[O-])ccc1Cl	10.5	99.1	17.3	99.2	i	0.7	-0.5
15	CCOc1ccc(Nc2nc3c(c(=O)[nH]2)CCCC3)cc1	50.0	102.3	-5.9	101.6	i	0.82	-2.1
16	CCN(CC(=O)NC(C)C)C(=O)c1ccc(Cl)cc1	-68.8	105.6	14.1	98.1	i	1.09	-0.1
17	CC(C)c1ccc(/C=c2\sc3nc(-c4ccncc4)nn3c2=O)cc1	-13.3	61.5	2.4	91.1	i	1.09	-1.1
18	O=C(Cn1cc([N+](=O)[O-])cn1)NCc1ccc(-n2cccn2)cc1	/	/	-0.3	99.1	i	0.89	/
19	O=C(NCCc1nc2ccccc2[nH]1)/C(=C/c1ccco1)NC(=O)c1ccco1	-242.9	104.2	5.0	80.3	i	1	-1.4
20	CCOc1cc(/C=N/NC(=O)c2cccnc2)ccc1OCC(=O)N1CCOCC1	/	/	9.2	100.2	i	0.98	-1.2
21	O=C(CCSc1nc(-c2ccco2)cc(C(F)(F)F)n1)NCC1CCCO1 (stereo unspecified)	-261.9	64.4	0.9	94.2	i	0.97	-0.1
22	C=CCNC(=O)C(C#N)c1nc2ccccc2nc1N1CCN(Cc2ccccc2)CC1 (stereo unspecified)	/	/	-16.7	137.6	i	1	-1.8
23	COCC(=O)Nc1ccccc1C(=O)Nc1ccc(OC)cc1	/	/	-0.6	102.3	i	0.82	-1.9
24	Cc1ccc(S(=O)(=O)NNC(=O)c2cccc(O)c2)cc1	6.7	82.9	-1.3	123.1	i	1	/
25	CC(=O)Nc1ccc(S(=O)(=O)NC2CCS(=O)(=O)C2)cc1Cl (stereo unspecified)	/	/	/	104.0	i	0.93	/
26	CC(=O)Nc1ccc(NC(=O)CCn2c(=S)oc3ccccc32)cc1	0.0	40.6	0.5	105.6	i	0.95	/
27	CCS(=O)(=O)Nc1ccc(C2=NN(C(=O)c3ccco3)C(c3ccc(C)cc3)C2)cc1 (stereo unspecified)	20.0	96.8	-6.5	110.6	i	1.04	-0.7
28	Cc1cc(C(=O)N2CCC(C(=O)O)CC2)c(C(F)(F)F)o1	/	/	/	100.3	i	1.13	/
29	COc1ccc(NC(=O)C(=O)NCCCO)cc1Cl	/	/	0.9	102.5	i	0.98	/
30	CCOC(=O)C1CCN(C(=O)CCCOc2ccccc2)CC1	-13.8	142.3	-1.4	71.8	i	1.11	-1.8

Arranged by molecular weight (smallest number first): 15 of the compounds above
nr	SMILES	Insulin prom inh	Insulin prom inh cell count	PKD1 inh	RGS16-Gao	HSV augment	HSV augment primary fold	GALR2 agonist
16	CCN(CC(=O)NC(C)C)C(=O)c1ccc(Cl)cc1	-68.8	105.6	14.1	98.1	i	1.09	-0.1
15	CCOc1ccc(Nc2nc3c(c(=O)[nH]2)CCCC3)cc1	50.0	102.3	-5.9	101.6	i	0.82	-2.1
29	COc1ccc(NC(=O)C(=O)NCCCO)cc1Cl	/	/	0.9	102.5	i	0.98	/
24	Cc1ccc(S(=O)(=O)NNC(=O)c2cccc(O)c2)cc1	6.7	82.9	-1.3	123.1	i	1	/
23	COCC(=O)Nc1ccccc1C(=O)Nc1ccc(OC)cc1	/	/	-0.6	102.3	i	0.82	-1.9
18	O=C(Cn1cc([N+](=O)[O-])cn1)NCc1ccc(-n2cccn2)cc1	/	/	-0.3	99.1	i	0.89	/
13	Cc1ccc(/C=N/Nc2cc(C)nc(NCc3ccccc3)n2)cc1	/	/	/	99.3	i	0.97	/
17	CC(C)c1ccc(/C=c2\sc3nc(-c4ccncc4)nn3c2=O)cc1	-13.3	61.5	2.4	91.1	i	1.09	-1.1
26	CC(=O)Nc1ccc(NC(=O)CCn2c(=S)oc3ccccc32)cc1	0.0	40.6	0.5	105.6	i	0.95	/
25	CC(=O)Nc1ccc(S(=O)(=O)NC2CCS(=O)(=O)C2)cc1Cl (stereo unspecified)	/	/	/	104.0	i	0.93	/
19	O=C(NCCc1nc2ccccc2[nH]1)/C(=C/c1ccco1)NC(=O)c1ccco1	-242.9	104.2	5.0	80.3	i	1	-1.4
21	O=C(CCSc1nc(-c2ccco2)cc(C(F)(F)F)n1)NCC1CCCO1 (stereo unspecified)	-261.9	64.4	0.9	94.2	i	0.97	-0.1
20	CCOc1cc(/C=N/NC(=O)c2cccnc2)ccc1OCC(=O)N1CCOCC1	/	/	9.2	100.2	i	0.98	-1.2
22	C=CCNC(=O)C(C#N)c1nc2ccccc2nc1N1CCN(Cc2ccccc2)CC1 (stereo unspecified)	/	/	-16.7	137.6	i	1	-1.8
27	CCS(=O)(=O)Nc1ccc(C2=NN(C(=O)c3ccco3)C(c3ccc(C)cc3)C2)cc1 (stereo unspecified)	20.0	96.8	-6.5	110.6	i	1.04	-0.7

(listing goes on)
nr	SMILES	Insulin prom inh	Insulin prom inh cell count	PKD1 inh	RGS16-Gao	HSV augment	HSV augment primary fold	GALR2 agonist
31	COC(=O)C1=C(N)OC2=C(C(=O)CC(C)(C)C2)C1c1ccccc1OC (stereo unspecified)	23.1	92.9	-4.5	101.1	/	/	/
32	COc1ccc(CNc2oc(-c3cccc4ccccc34)nc2C#N)cc1	36.1	112.1	0.0	98.4	i	1.05	1.9
33	COc1ccc(CCNC(=O)CC2SC(N)=NC2=O)cc1OC (stereo unspecified)	33.3	120.1	1.0	107.5	i	1.07	/
34	Clc1ccccc1CSc1ncccn1	-9.7	94.4	1.5	102.1	i	1.06	-3.2
35	O=C(Nc1ccc(-c2nc3ccccc3[nH]2)cc1)c1cccc(N2C(=O)CCC2=O)c1	12.0	138.4	-8.8	107.0	i	0.7	0.3
36	CCCC(=O)Nc1ccccc1-c1nnc(SC)[nH]c1=O	/	/	-13.4	83.4	i	0.89	-3.0
37	Cn1c(C(=O)N2CCN(c3ccc(Cl)cc3)CC2)cc2c(=O)[nH]c3ccccc3c21	/	/	-6.1	106.5	i	0.82	-0.8
38	CCC(C)c1ccccc1NC(=O)c1cc2cccc([N+](=O)[O-])c2[nH]1 (stereo unspecified)	/	/	/	78.6	i	1.1	/
39	S=C1NC[C@H](c2ccccc2)N1CCCCC1CCCCC1	/	/	/	93.8	i	0.84	/
40	O=C(/C=C/Nc1cccc(C(F)(F)F)c1)c1ccc(Oc2ncccn2)cc1	25.8	138.0	-8.4	98.2	/	/	0.0
41	COc1cc(C2NC(=O)NC(c3ccccc3)=C2C(C)=O)ccc1OCC#N (stereo unspecified)	-6.9	153.3	0.2	112.7	i	1.06	-1.9
42	COc1ccc(-c2csc(-c3cccs3)n2)c(OC)c1	/	/	-7.3	100.3	i	1.01	/
43	Nc1ccc([N+](=O)[O-])cc1C(=O)NNC(=O)c1ccco1	/	/	/	95.4	i	1.07	/
44	O=C(CC1CCCCC1)Nc1nc2ccccc2s1	/	/	-5.2	98.4	i	1	/
45	Cc1cc(=O)oc(C)c1C(=O)O	-170.0	129.2	-8.9	99.2	i	1.05	-1.6
46	O=c1cc(-c2c(F)c(F)c(F)c(F)c2F)oc2ccccc12	-3.3	108.5	-1.6	104.4	i	0.54	-1.5
47	O=C(CNC(=O)c1ccc(Br)cc1)NCC(=O)OCC(=O)c1ccccc1	-42.9	89.2	0.2	101.7	i	0.98	/
48	Cc1cc(NCCCn2ccnc2)n2ncc(-c3ccccc3)c2n1	/	/	2.9	127.1	i	0.84	-0.1
49	COc1ccc(C[C@H]2CN3C(=NC[C@@H]3C(C)C)N2CCNC(=O)CCC2CCCCC2)cc1	/	/	-4.3	13.7*	/	/	/
50	Cc1c(Cl)cccc1NC(=S)NCCc1ccc(S(N)(=O)=O)cc1	8.8	77.2	-7.5	102.3	i	0.93	-1.7
51	NC(=O)c1c(NC(=O)C2CCCO2)sc2c1CCCC2 (stereo unspecified)	0.0	85.1	-5.1	14.5	i	0.95	-1.8
52	CC(=O)Nc1ccccc1C(=O)N1CCN(c2cccc(C)c2C)CC1	/	/	0.1	94.2	i	0.97	/
53	COc1ccc(OC)c(NC(=O)CN2C(=O)C3(OCCCO3)c3ccccc32)c1	-26.9	130.8	-4.1	95.8	i	0.93	-1.5
54	O=C(NCC1CCCO1)c1cc(-c2ccccc2)nc2ccccc12 (stereo unspecified)	/	/	/	99.0	i	0.86	/
55	NCCCC[C@@H](C(=O)N1CCNCC1)n1cc(CCC(=O)O)nn1	/	/	0.5	105.0	i	0.66	/
56	CCOc1ccc(-c2nnn(CC(=O)NCc3ccco3)n2)cc1OCC	-33.3	159.2	-7.1	99.9	i	1.04	-0.8
57	COC(=O)c1nc(NC(C)=O)n[nH]1	-42.9	138.8	-2.8	102.2	i	0.87	-0.6
58	CS(=O)(=O)N(CC(=O)NCCSCc1ccccc1)c1ccccc1	/	/	-5.5	103.3	i	1.02	/
59	COc1ccc(C2=NOC(C(=O)NCCCN3CCOCC3)C2)cc1 (stereo unspecified)	5.7	92.5	-3.9	104.7	i	1.07	-1.0
60	CC1CC(C)CN(c2oc(Cc3ccccc3)nc2C#N)C1 (stereo unspecified)	7.1	112.2	-7.1	78.4	i	0.95	0.0
61	O=C(Nc1ccccc1)OCc1cnc(Cl)s1	-38.1	71.7	-7.7	104.7	i	0.99	/
62	O=c1[nH]c(SCC2CCCCO2)nc2ccccc12 (stereo unspecified)	/	/	-14.8	105.7	i	0.74	0.1
63	C=CCn1c(Cn2nnc3ccccc32)nnc1SCC(=O)N/N=C/c1cc(Br)cc(OC)c1O	-8.1	48.4	0.1	-35.2*	i	0.92	-1.0
